# ClpP mod: qHTS Assay for Activators of ClpP; ATP-dependent Clp protease proteolytic subunit (Bacillus subtilis (strain 168)), P80244; purified B. subtilis ClpP, FRET peptide cleavage, 20 min; Potency, µM (doses to about 57.5 µM), without a hit: at the highest dose activity change, negative = active; 340,000 compounds, 1.9% hits; AID 651965, 2013; active = well fitted falling curve with a large enough effect; inconclusive = small, poorly fitted or top-dose-only effect; inactive = no such curve, though single readings can be large or run the other way; also: potency is read from the fitted curve at half-maximal effect; the source files actives as falling curves though it sought activators and does not explain the sign; nearly all actives have a fitted effect of over 65% in size; many hits overshoot -100%
# Target sequence (P80244 whole entry, looked up): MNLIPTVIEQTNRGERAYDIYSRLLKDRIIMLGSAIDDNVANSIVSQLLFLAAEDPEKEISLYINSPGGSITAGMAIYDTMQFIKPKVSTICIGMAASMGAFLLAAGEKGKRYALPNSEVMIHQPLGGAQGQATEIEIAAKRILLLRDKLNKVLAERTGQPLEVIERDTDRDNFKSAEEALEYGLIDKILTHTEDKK
#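 Purified B. subtilis ClpP, 10 microg/mL final in Tris/HCl pH8 with KCl, BSA, glycerol and Tween-20, cleaved an Abz/nitrotyrosine-quenched decapeptide. Fluorescence (ex 320, em 430) was read at 0 and 20 min at room temperature. Delta was normalized to 5.8 microM ADEP and DMSO/no-enzyme controls.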
# gsp antagonist: antagonizes gsp, the McCune-Albright syndrome mutation. 340,000 compounds, 0.4% hits. Potency, µM (highest dose often 76.9 µM), for the others: at the top dose activity change, negative = inhibition, most hits filed as inhibitors. gsp-mutant cells, cAMP HTRF, 30 min; control for the full effect not named in the record; active = falling curve of any shape with a large fitted effect; inconclusive = falling curve, mostly with a smaller effect; inactive = flat or rising curve; cell line not stated here;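 also: intracellular cAMP measured with PDE inhibitor Ro 20-1724 present during compound exposure; potency is read from the fitted curve at half-maximal effect; % is scaled to controls: 0 for no effect and ±100 for the full control effect; nearly all actives have a fitted effect of over 65% in size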
#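 Cells in G418 medium, seeded 16-24 h, 37C; buffer exchange to DPBS + 1 mM CaCl2, 0.5 mM MgCl2, 0.05% BSA; cpds in DMSO + […] (300 uM stock), 30 min 37C; HTRF cAMP detection.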
# Sfp inh: blocks B. subtilis Sfp PPTase activity | Q9F4F7 | 310,000 compounds, 3.5% hits | Potency, µM, for inactives: max response, negative = inhibition, usual class: inhibitors | AID 1490 | Biochemical Sfp PPTase activity, qHTS; active = well fitted inhibition curve with a large enough effect; inconclusive = small, poorly fitted or top-dose-only effect, or another doubt; inactive = no such curve, though single readings can be large or run the other way;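 also: the enzyme is Sfp with the accession as filed and its product quenches rhodamine fluorescence; potency is read from the fitted curve at half-maximal effect; 0% = enzyme reaction without inhibitor and -100% = no enzyme wells; top concentration of the series not given in the record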
#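 With Hepes-Na pH 7.6 buffer containing 10 mM MgCl2, Sfp (15 nM) modified BHQ-2-YbbR (12.5 uM) using rhodamine-CoA (5 uM). Two reads 30 minutes apart at 525/598 nm yielded each well's rate.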
# TRPML1 inh: inhibitors of human TRPML1 channel; Q9GZU1; activity change, negative = inhibition, % (test concentration not listed); 390,000 compounds, 0.02% hits; TRPML1-inducible cells, Ca2+ dye fluorescence, FDSS; active compounds read low; inhibition of EC80 agonist-evoked calcium signal; in the data active means activity change below about -50%; inconclusive means about -30% to -50%; inactive means above about -30%;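 also: stimulus is agonist 54-4 at its EC80 concentration; % is scaled to controls: 0 for no effect and ±100 for the full control effect; compound concentration not given in the record; the text of the record puts the active cut at -80%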
#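 TRPML1-DL cells, Tet-induced overnight (~16 h, 37 °C) at 1,500 cells/well, were loaded with Ca8 no-wash dye plus quencher for 45-90 min at room temperature. Compounds were pinned during FDSS kinetic reading; agonist 54-4 at EC80 (4 uM final) then added.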
# Menin-MLL FL inh: inhibitors of human menin-MLL interaction, wild-type MLL peptide; Fluorescence polarization, fluorescein-MLL peptide displacement from menin; FP activity change, % at 61.4 µM; 290,000 tested, under 10 active; inconclusive = falling polarisation curve, or a change in total fluorescence; inactive = total fluorescence flat and polarisation flat or rising; no compound was filed as active; the % refers to the polarisation; negative = inhibition;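 also: % of control where 0% means no effect; inhibitors lower the polarisation; unlabelled MLL peptide was the positive control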
# gsp agonist: activates gsp, the McCune-Albright syndrome mutation; gsp mutant cells, cAMP HTRF, 30 min; control for the full effect not named in the record; Potency, µM (titrated, usually from 76.9 µM), inactives show top-dose activation (cAMP increase), actives largely listed as activators; 340,000 compounds, 0.13% hits; active = well fitted activation curve with a large enough effect; inconclusive = small, poorly fitted or top-dose-only effect, or another doubt; inactive = no such curve, though single readings can be large or run the other way; cell line not stated here;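 also: phosphodiesterase inhibitor Ro 20-1724 added with compounds to block cAMP breakdown; potency is read from the fitted curve at half-maximal effect; nearly all actives have a fitted effect of over 60% in size; about a fifth of the inactives were tested at one dose only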
#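 Cells stably selected in G418 were plated at 2000/well, grown 16-24 hr, then given compounds in DMSO with the PDE inhibitor […] (300 uM solution added) for 30 min at 37C; cAMP was read by HTRF.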
# TRPV1 potentiator: potentiators of human vanilloid receptor 1 (TRPV1); 320,000 compounds, 0.02% hits; TRPV1-expressing cells, Fluo-8 calcium influx, capsaicin EC20 potentiation; host cell line not named in the record; control for the full effect not named in the record; potentiation, % at 8.33 µM; active means potentiation above 80%; inconclusive means 30% to 80%; inactive means below 30%; also: 0% is about no effect
# Target sequence (Q8NER1 whole entry, looked up): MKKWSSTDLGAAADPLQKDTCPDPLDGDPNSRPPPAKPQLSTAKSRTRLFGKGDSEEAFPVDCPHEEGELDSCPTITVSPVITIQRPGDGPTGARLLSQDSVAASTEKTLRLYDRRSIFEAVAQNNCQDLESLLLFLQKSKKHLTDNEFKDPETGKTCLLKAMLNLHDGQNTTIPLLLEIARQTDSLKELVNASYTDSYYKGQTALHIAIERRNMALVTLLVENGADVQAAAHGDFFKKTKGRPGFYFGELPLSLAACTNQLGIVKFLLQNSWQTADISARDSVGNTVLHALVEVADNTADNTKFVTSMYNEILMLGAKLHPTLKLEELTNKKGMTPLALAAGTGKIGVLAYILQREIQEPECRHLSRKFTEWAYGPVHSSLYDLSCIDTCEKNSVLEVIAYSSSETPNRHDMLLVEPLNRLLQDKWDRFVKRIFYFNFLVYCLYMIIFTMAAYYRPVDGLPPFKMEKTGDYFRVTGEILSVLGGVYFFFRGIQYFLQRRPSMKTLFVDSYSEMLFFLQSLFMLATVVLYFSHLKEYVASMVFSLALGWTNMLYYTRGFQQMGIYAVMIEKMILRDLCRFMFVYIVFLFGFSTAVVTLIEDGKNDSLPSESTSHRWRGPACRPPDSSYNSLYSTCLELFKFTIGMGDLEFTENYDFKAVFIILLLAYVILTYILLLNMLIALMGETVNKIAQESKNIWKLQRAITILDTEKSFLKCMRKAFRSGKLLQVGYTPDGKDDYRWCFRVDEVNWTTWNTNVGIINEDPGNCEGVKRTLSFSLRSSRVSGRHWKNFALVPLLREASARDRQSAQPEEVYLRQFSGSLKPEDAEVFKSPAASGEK
#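 TRPV1-expressing cells were cultured overnight at 35.5C and loaded with Fluo-8 calcium dye for 40 to 90 min at room temperature. After a 10 s baseline, compound was added and calcium influx was read kinetically for 3 min (ex 480/em 520 nm).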
# The depositor's hits bear a star; ? = inconclusive; . = not tested or not shown; [ ] = remark or other dose.
entry | Structure | ClpP mod | gsp antagonist | Sfp inh | TRPML1 inh | Menin-MLL FL inh | gsp agonist | TRPV1 potentiator
1 | Cc1c(C(=O)OC2CCC(C)CC2)[nH]c2c1C(=O)CCC2 (configuration not stated) | -0.1% | -21% | 8% | -3 | -1.4 | -35% | -11
2 | CC(=O)Nc1c(C(=O)NCc2ccccc2)nnn1Cc1ccccc1 | 2.5% | 17% | 23% | -7 | 0.7 | ? | 2
3 | O=C(Cn1nnc(-c2ccc(Cl)cc2)n1)NC(=O)NC1CCCC1 | -0.8% | . | . | 1 | . | -46%[inhibitor] | .
4 | COc1ccc(Cl)cc1NC(=O)CSc1nnc(C2CC2)n1N | 0.7% | 11% | . | -23 | . | ? | 4
5 | O=C(CN1CCN(c2cccc(Cl)c2)CC1)c1ccc(O)cc1O | -5.4% | -7% | 4% | -8 | 4.6 | 18% | -9
6 | O=C(COC(=O)C12CC3CC(CC(O)(C3)C1)C2)NCCc1ccc(Cl)cc1 | -4.2% | 8% | 7% | -20 | -2.7 | -6% | ?
7 | O=C1CSCC(=O)N1Cc1ccc(Cl)c(Cl)c1 | . | -3% | 7% | 16 | -1.2 | 14% | -26
8 | CCOC(=O)c1nc(C)n(-c2cc(OC)c(Cl)cc2Cl)n1 | . | . | 14% | 0 | -1.1 | 0%[15.4 µM] | 15
9 | COc1ccc(-c2csc3nc(-c4ccccc4F)oc(=O)c23)cc1OC | -22% | -5% | ? | 8 | 4.2 | 15% | 4
10 | COC(=O)c1cccc2c(C(=O)O)cc(-c3ccccc3)nc12 | -10% | -31% | . | -1 | . | -7% | .
11 | Cc1oc2cc3oc(=O)c(CC(=O)N[C@H](C(=O)N[C@@H](C(=O)O)c4ccccc4)C(C)C)c(C)c3cc2c1C | -18% | 50µM* | -8% | . | -2.6 | . | 1
12 | CCOC(=O)CSCC(=O)Nc1c(C(=O)C2CC2)oc2ccccc12 | -16% | 2% | 0% | 6 | -1.1 | 21% | 15
13 | Nc1cc(C(=O)OCC(=O)N2CCOCC2)ccc1Cl | . | 6% | 8% | 3 | 0.7 | 17% | -10
14 | CCOC(=O)c1c(C)[nH]c(C(=O)OCC(=O)Nc2cc(C)ccc2OC)c1C | -0.6% | 4% | 5% | -3 | 9.2 | -2% | -11
15 | Cc1ccc(C)c2c1CCCC2=O | 1.6% | . | . | 10 | . | -53%[inhibitor] | .
16 | Cc1nc(NCc2ccco2)[nH]c(=O)c1CCC(C)C | 0.4% | 4% | 3% | 12 | -0.5 | -15% | -3
17 | CN(CC(=O)N1CCN(c2ncccn2)CC1)S(=O)(=O)c1ccc(Cl)cc1 | . | -8% | -14% | 1 | 8.0 | -7%[15.4 µM] | 1
18 | CS(=O)(=O)c1ccccc1C(=O)Nc1cccc2ncccc12 | . | 16% | 15% | -9 | -27 | 5% | -9
19 | C/C(=N\NC(=O)c1nnn(-c2nonc2N)c1CN(C)C)c1ccco1 | -1.9% | -11% | -7% | 26 | 11 | -47%[inhibitor] | 11
20 | Cc1cc(C)c(NC(=S)N2CCN(c3ccc([N+](=O)[O-])cn3)CC2)cc1C | 1.8% | -25% | 2% | -15 | 3.3 | -20% | -19
21 | CC1(C)CC(N2CCCC2)=CC(=[N+]2CCCCC2)C1 | 0.2% | 1% | -19% | -5 | -3.7 | -16% | ?
22 | C#CCOCCOCCOCCNc1nc(N2CCN(C(=O)[C@H](CCC(=O)O)n3cc(C(N)Cc4ccc(O)cc4)nn3)CC2)nc(N2CCN(C(=O)[C@H](CCC(=O)O)n3cc(C(N)[C@H](C)CC)nn3)CC2)n1 (some centres not stated) | -1.5% | 15% | -28% | -3 | -2.5 | . | -7
23 | Cn1cnnc1SCC(=O)N1N=C(c2ccc(Cl)cc2)CC1c1ccco1 (configuration not stated) | 1.4% | -4% | 50µM* | -10 | 1.6 | -45%[inhibitor] | ?
24 | S=C(NCc1cccs1)Nc1cccc2ccccc12 | . | . | 17% | -7 | -4.8 | 2%[15.4 µM] | -11
25 | Cc1ccc(N(C(=O)Cn2nnc(-c3ccccc3F)n2)C(C(=O)NC2CCCC2)c2ccncc2)cc1 (configuration not stated) | . | . | 12% | 0 | 0.9 | 6%[15.4 µM] | 10
26 | Cc1c(C(=O)NCCSc2ccc(Cl)cc2)cccc1[N+](=O)[O-] | -3.9% | -14% | 11% | 29 | 8.6 | ? | -16
27 | O=C(O)Cn1cc(C(=S)N2CCOCC2)c2ccccc21 | -1.5% | 5% | 50µM* | -13 | 2.4 | 1% | 5
28 | CCCCNC(=O)c1cn(C)c2ccc(S(=O)(=O)N3CC(C)CC(C)C3)cc2c1=O (configuration not stated) | -3.4% | 0% | 18% | -7 | 4.3 | -1% | -7
29 | CCOc1ccccc1NS(=O)(=O)c1ccc(Br)s1 | 0.0% | -8% | 7% | 11 | 1.8 | 7% | 4
30 | CCCn1c(=O)[nH]c(=O)c2c1nc(-c1cc([N+](=O)[O-])ccc1Cl)n2CCOC | 1.8% | -8% | 13% | 26 | . | -6%[15.4 µM] | 0

# Next records.
entry | Structure | ClpP mod | gsp antagonist | Sfp inh | TRPML1 inh | Menin-MLL FL inh | gsp agonist | TRPV1 potentiator
31 | CC(C)(C)Cc1c(-c2ccc(F)cc2)nc2ccc(Br)cn12 | -3.7% | . | . | 4 | . | -25% | .
32 | O=C(OCC(=O)N1CCN(C(=O)c2ccco2)CC1)c1cccc(S(=O)(=O)N2CCc3ccccc32)c1 | . | -26% | 4% | -18 | 1.0 | 0%[15.4 µM] | 4
33 | Cc1ccc(C2=NOC3(CC(=O)N(c4ccccc4)C3=O)C2)cc1 (configuration not stated) | -1.4% | -5% | 5% | -17 | -4.1 | 15% | -6
34 | O=C(COC(=O)CN1C(=O)C(=O)c2ccccc21)OCN1C(=O)c2ccccc2C1=O | 0.5% | 12% | 5% | 6 | 0.8 | -90%[inhibitor] | 8
35 | Cc1ccc(OCCN2CCN(c3ncnc4sc(C)c(C)c34)CC2)cc1 | -0.9% | ? | -11% | -4 | -0.2 | -3% | -4
36 | Cc1ccc(S(=O)(=O)N2CCOc3ccccc32)c(C)c1NS(C)(=O)=O | 1.5% | -14% | 9% | -1 | -5.8 | -1% | 4
37 | COCCOc1cc(NC(=O)CS(=O)(=O)CC(=O)N(C)C)c(Cl)cc1Cl | . | -11% | 11% | -8 | 1.4 | ? | 11
38 | O=C(NC1CCCCC1)c1ccc(-n2cnnn2)cc1 | 0.2% | 0% | 6% | . | 0.4 | ? | -10
39 | Cc1ccc(C)c(NC(=S)NCCc2ccc(F)cc2)c1 | -0.7% | -1% | 0% | -1 | 3.5 | 3% | -15
40 | CCCCCC(=O)Nc1cccc(C2=NOC3(C2)C[C@H](C(N)=O)N(C(=O)COc2ccc(Cl)cc2)C3)c1 (some centres not stated) | -6.6% | -8% | 2% | -14 | 5.9 | . | -6
41 | C=CCNC(=O)C1CC2Cn3c(nc4cc5ccccc5cc43)C2N1C (configuration not stated) | -20% | 2% | 12% | 21 | -8.3 | . | -8
42 | COc1ccc(NC(=O)CN2C(=O)NC(C)(c3ccc4c(c3)OCO4)C2=O)cc1S(N)(=O)=O (configuration not stated) | -0.4% | 4% | . | -6 | . | -4%[15.4 µM] | .
43 | Cc1nn(CC(=O)NNC(=O)c2ccccc2F)c([N+](=O)[O-])c1Br | . | 7% | 10% | 12 | 0.4 | -29% | .
44 | O=C(Nn1cnc2ccccc2c1=O)c1ccc([N+](=O)[O-])cc1Cl | . | -2% | 25% | -19 | -0.5 | 9%[15.4 µM] | 2
45 | CCOC(=O)c1ccc(S(=O)(=O)N2CCN(C3CC(=O)N(c4ccccc4C(F)(F)F)C3=O)CC2)cc1 (configuration not stated) | -1.9% | -3% | . | 24 | . | -36%[inhibitor] | 6
46 | O=C(NCCCn1ccnc1)c1ccccc1NS(=O)(=O)c1ccc(F)c(F)c1 | -6.4% | 1% | 25% | 0 | 1.7 | 10% | ?
47 | O=C(Cn1cc2c(n1)CCCC2)NCCCN1CCN(Cc2ccccc2)CC1 | 1.0% | 9% | 8% | 2 | -5.6 | 8% | 1
48 | COc1cc(OC)cc(-c2c(-c3ccc(F)cc3)c3cc(-c4ccc(SC)cc4)ccc3n2C)c1 | 4.3% | 11% | . | -29 | . | -10% | .
49 | O=C(/C=C/c1ccccc1Cl)Nc1cccnc1 | 0.4% | -9% | -10% | 16 | -2.3 | -31%[inhibitor] | ?
50 | Cc1ccc(N2C(=O)C(NC(=O)c3ccccc3)(C(F)(F)F)C3=C2CC(C)(C)CC3=O)cc1 (configuration not stated) | 1.6% | 18% | 31%[activator] | 23 | . | -10%[15.4 µM] | -1
51 | CCN(CC)CC(=O)Nc1cccc(S(=O)(=O)N2CCCC2)c1 | . | 6% | 12% | -5 | 4.4 | -13%[15.4 µM] | -1
52 | COc1ccc(CCNC(=O)c2c(C)cc(=O)oc2C)cc1OC | 1.1% | -10% | 21% | -1 | 1.4 | -15% | 8
53 | Cc1cccc(NC(=S)NCC(c2cccnc2)N2CCOCC2)c1C (configuration not stated) | -1.1% | -4% | 16% | 0 | 1.6 | 9% | 20
54 | Cc1ccc(-n2cnc3ncnc(-c4ccccc4)c32)cc1 | . | -4% | 19% | 9 | 0.7 | 7% | -30
55 | CS(=O)(=O)n1nc(NCc2cccs2)nc1NCc1cccs1 | . | -2% | 12% | -7 | 2.1 | 7% | 1
56 | COC(=O)C1=CN(CCOC23CC4CC(CC(C4)C2)C3)C=C(C(=O)OC)C1c1ccsc1 | -1.2% | -27% | 11% | 47 | -0.1 | -1%[15.4 µM] | -3
57 | CC(C)Cn1c(N)c(C(=O)COC(=O)C2Cc3ccccc3CN2S(C)(=O)=O)c(=O)n(C)c1=O (configuration not stated) | -5.5% | ? | . | 8 | . | 3% | 3
58 | CC(=O)COc1ccc2c(C)c(C)c(=O)oc2c1 | -7.2% | 1% | 7% | -13 | 1.6 | -13% | -2

# Screening results (PubChem BioAssay)
